UCH37 inh: blocks the human deubiquitinase UCH37; AID 588478; inhibition, % (no concentration beside the values); purified proteasome/UCH37, Ub-AMC cleavage fluorescence; 330,000 compounds, 0.33% hits; Q9Y5K5;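 active = mean of two replicates above 20%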;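 also: 0% = compound-free wells with enzyme and 100% = wells lacking proteasome; stock transfer was 100 nL into about 20 µL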
Target sequence (Q9Y5K5 whole entry, looked up): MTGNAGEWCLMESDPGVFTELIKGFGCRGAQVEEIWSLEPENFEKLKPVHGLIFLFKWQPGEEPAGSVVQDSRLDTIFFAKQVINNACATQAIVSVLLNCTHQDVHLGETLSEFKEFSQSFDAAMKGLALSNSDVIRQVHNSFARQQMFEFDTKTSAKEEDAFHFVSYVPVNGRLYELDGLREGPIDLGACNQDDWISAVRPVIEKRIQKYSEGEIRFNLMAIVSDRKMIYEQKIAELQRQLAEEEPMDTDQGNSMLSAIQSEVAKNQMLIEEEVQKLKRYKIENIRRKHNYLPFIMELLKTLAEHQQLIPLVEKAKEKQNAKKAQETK
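Reagent: Ub-AMC substrate; assay system: Proteasome-associated human UCH37 deubiquitinase; controls: no-proteasome and no-compound wells; read-out: % inhibition of Ub-AMC cleavage fluorescence; timing: 30 min preincubation with enzyme, 25 min cleavage at room temperature; signal: AMC fluorescence from Ub-AMC cleavage, excitation 355 nm, emission 460 nm; buffer or medium: Tris-HCl pH 7.4 plus ovalbumin, ATP-MgCl2, DTT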
Ecoli growth: blocks Escherichia coli growth; 330,000 compounds, 0.21% hits; AID 1053175; OD600, 23 h; hits give low values; OD600 absorbance (concentration not given with the values);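 active = OD600 absorbance below the run mean of sample wells minus 3.6 SD, in any replicate, cut at about 0.56 in these data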;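 also: stock transfer was 300 nL into about 60 µL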
Numbers without * were called inactive; nt = not tested or not shown. The list is partial (hit frequency here may not be typical).

UCH37 inh	Ecoli growth	canonical_smiles
0.7	nt	C/C=C/C=NNC(=O)c1ccncc1
nt	0.694	CC(=O)OCC(=O)[C@@]1(O)CCC2C3CCC4=CC(=O)C=C[C@]4(C)[C@@]3(F)C(O)C[C@@]21C (some centres undefined)
nt	0.644	COc1ccc(-c2oc3c(CC=C(C)C)c(OC4OC(CO)C(O)C(O)C4O)cc(O)c3c(=O)c2OC2OC(C)C(O)C(O)C2O)cc1 (centres undefined)
nt	0.693	CC1CC2C3CCC4=CC(=O)C=C[C@]4(C)[C@@]3(Cl)C(O)C[C@]2(C)[C@@]1(OC(=O)c1ccco1)C(=O)CCl (some centres undefined)
nt	0.717	C[C@]12CCC3C(CCC4=CC(=O)CC[C@@]43C)C1CCC2C(=O)CO (some centres undefined)
nt	0.686	COc1cc2c(c(OC)c1OC)-c1c(cc3c(c1OC)OCO3)C(OC(C)=O)C(C)C(C)C2 (centres undefined)
nt	0.681	CC=CC=NNC(=O)c1ccncc1
nt	0.686	CCCC(=O)O[C@]1(C(=O)COC(C)=O)CCC2C3CC(F)C4=CC(=O)C=C[C@]4(C)[C@@]3(F)C(O)C[C@@]21C (some centres undefined)
nt	0.661	CC=C(C)C(=O)OC(C)(C)C1Cc2c(ccc3ccc(=O)oc23)O1 (centres undefined)
nt	0.773	Cc1c(C(=O)O)c(O)cc2c1C(=O)c1c(O)c(C3OC(CO)C(O)C(O)C3O)c(O)c(O)c1C2=O (centres undefined)
nt	0.721	CCCC(=O)O[C@]1(C(=O)CCl)C(C)CC2C3CCC4=CC(=O)C=C[C@]4(C)[C@@]3(F)C(=O)C[C@@]21C (some centres undefined)

Look-ups from above.
CC=C(C)C(=O)OC(C)(C)C1Cc2c(ccc3ccc(=O)oc23)O1 (centres undefined) | Ecoli growth = 0.661
C/C=C/C=NNC(=O)c1ccncc1 | UCH37 inh = 0.7

An excerpt taken from the entries so far:
UCH37 inh	Ecoli growth	canonical_smiles
0.7	nt	C/C=C/C=NNC(=O)c1ccncc1
nt	0.694	CC(=O)OCC(=O)[C@@]1(O)CCC2C3CCC4=CC(=O)C=C[C@]4(C)[C@@]3(F)C(O)C[C@@]21C (some centres undefined)
nt	0.644	COc1ccc(-c2oc3c(CC=C(C)C)c(OC4OC(CO)C(O)C(O)C4O)cc(O)c3c(=O)c2OC2OC(C)C(O)C(O)C2O)cc1 (centres undefined)
nt	0.693	CC1CC2C3CCC4=CC(=O)C=C[C@]4(C)[C@@]3(Cl)C(O)C[C@]2(C)[C@@]1(OC(=O)c1ccco1)C(=O)CCl (some centres undefined)
nt	0.717	C[C@]12CCC3C(CCC4=CC(=O)CC[C@@]43C)C1CCC2C(=O)CO (some centres undefined)
